From PubChem BioAssay
Polio RdRp inh: inhibitors of poliovirus RNA polymerase binding and polymerization. % elongation, % (compound at 16.7 µg/mL). 150,000 compounds, 0.66% hits. poliovirus polymerase elongation, fluorescence polarization; stronger effect = lower value; in the data active = % elongation below about 90%; also: some results filed as inactive read as strong as hits
Target sequence (P03300 1749-2209 limits assumed): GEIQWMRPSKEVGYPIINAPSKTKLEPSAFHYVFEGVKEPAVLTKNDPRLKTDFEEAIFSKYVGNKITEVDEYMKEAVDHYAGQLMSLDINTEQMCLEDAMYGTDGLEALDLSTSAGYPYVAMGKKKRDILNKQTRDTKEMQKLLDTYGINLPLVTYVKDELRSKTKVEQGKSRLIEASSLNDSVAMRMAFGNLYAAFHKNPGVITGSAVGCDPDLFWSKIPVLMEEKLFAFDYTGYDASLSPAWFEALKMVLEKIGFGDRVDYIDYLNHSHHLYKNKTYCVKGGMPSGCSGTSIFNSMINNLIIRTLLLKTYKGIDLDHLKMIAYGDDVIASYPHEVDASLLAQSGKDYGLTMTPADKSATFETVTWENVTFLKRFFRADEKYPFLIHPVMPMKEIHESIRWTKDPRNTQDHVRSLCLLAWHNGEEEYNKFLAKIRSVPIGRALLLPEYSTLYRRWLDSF
Polio RdRp inh intensity: second read-out of Polio RdRp inh, no call of its own (marks repeat the call); % elongation; measured here: total intensity read-out; formula for this scale not given here;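 total fluorescence in place of polarization; lower means less elongation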
* = called active by the depositor.

Start of the data: the first 15 records (preview)
SMILES | Polio RdRp inh | Polio RdRp inh intensity
O=C(NCc1ccccc1F)C(=O)NCC(c1ccco1)S(=O)(=O)c1cccs1 (stereo unspecified) | 108 | 115
CCc1ccc(NCc2cc3ccc(OC)cc3n(CC(=O)Nc3ccc(C(C)C)cc3)c2=O)cc1 | 104 | 105
CCc1ccccc1NC(=O)NCc1ccc2c(c1)CCN2C(=O)c1ccccc1 | 107 | 106
COc1ccc(-n2ccn(CC(=O)Nc3ccccc3C(F)(F)F)c(=O)c2=O)cc1OC | 101 | 102
O=C(CSCn1nnc2c(=O)[nH]c(Cc3ccc(F)cc3)nc21)Nc1ccccc1 | 109 | 114
CC1CCC(NC(=O)Cn2ncc3c4ccccc4n(Cc4ccc(F)cc4)c3c2=O)CC1 (stereo unspecified) | 108 | 107
CCOc1ccc(CNC(=O)c2ccc3c(c2)N(Cc2ccccc2)CCS3)cc1 | 105 | 106
CCc1ccc(-c2cc(C)no2)cc1S(=O)(=O)Nc1cc(OC)c(OC)c(OC)c1 | 115 | 116
CCOc1ccc(C(NC(=O)c2cc(OC)c(OC)c(OC)c2)c2cc(Cl)c3cccnc3c2O)cc1 (stereo unspecified) | 71 | 236
COc1ccc(OC)c(NC(=O)CN2C(=O)c3ccccc3Sc3ccc(C(=O)N4CCCC4)cc32)c1 | 109 | 100
COc1ccc(-n2c(C)c(C(C)=O)c3cc(OC(=O)c4ccc(C)cc4)ccc32)cc1 | 108 | 108
CCOC(=O)c1c(C)n(-c2ccccc2)c2ccc(OC(=O)c3cccc(C)c3)cc12 | 105 | 108
Cc1ccc(Cc2nc3ccccc3nc2SCC(=O)N2CCCCC2C)cc1 (stereo unspecified) | 102 | 104
COc1ccccc1C(=O)c1cn(CC(=O)Nc2ccccc2F)c2nc(C)ccc2c1=O | 112 | 116
CCOC(=O)Cn1c(=O)oc2cc(S(=O)(=O)N3CCN(c4ccc(F)cc4)CC3)ccc21 | 110 | 108

Main list, previewed entries included:
SMILES | Polio RdRp inh | Polio RdRp inh intensity
O=C(NCc1ccccc1F)C(=O)NCC(c1ccco1)S(=O)(=O)c1cccs1 (stereo unspecified) | 108 | 115
CCc1ccc(NCc2cc3ccc(OC)cc3n(CC(=O)Nc3ccc(C(C)C)cc3)c2=O)cc1 | 104 | 105
CCc1ccccc1NC(=O)NCc1ccc2c(c1)CCN2C(=O)c1ccccc1 | 107 | 106
COc1ccc(-n2ccn(CC(=O)Nc3ccccc3C(F)(F)F)c(=O)c2=O)cc1OC | 101 | 102
O=C(CSCn1nnc2c(=O)[nH]c(Cc3ccc(F)cc3)nc21)Nc1ccccc1 | 109 | 114
CC1CCC(NC(=O)Cn2ncc3c4ccccc4n(Cc4ccc(F)cc4)c3c2=O)CC1 (stereo unspecified) | 108 | 107
CCOc1ccc(CNC(=O)c2ccc3c(c2)N(Cc2ccccc2)CCS3)cc1 | 105 | 106
CCc1ccc(-c2cc(C)no2)cc1S(=O)(=O)Nc1cc(OC)c(OC)c(OC)c1 | 115 | 116
CCOc1ccc(C(NC(=O)c2cc(OC)c(OC)c(OC)c2)c2cc(Cl)c3cccnc3c2O)cc1 (stereo unspecified) | 71 | 236
COc1ccc(OC)c(NC(=O)CN2C(=O)c3ccccc3Sc3ccc(C(=O)N4CCCC4)cc32)c1 | 109 | 100
COc1ccc(-n2c(C)c(C(C)=O)c3cc(OC(=O)c4ccc(C)cc4)ccc32)cc1 | 108 | 108
CCOC(=O)c1c(C)n(-c2ccccc2)c2ccc(OC(=O)c3cccc(C)c3)cc12 | 105 | 108
Cc1ccc(Cc2nc3ccccc3nc2SCC(=O)N2CCCCC2C)cc1 (stereo unspecified) | 102 | 104
COc1ccccc1C(=O)c1cn(CC(=O)Nc2ccccc2F)c2nc(C)ccc2c1=O | 112 | 116
CCOC(=O)Cn1c(=O)oc2cc(S(=O)(=O)N3CCN(c4ccc(F)cc4)CC3)ccc21 | 110 | 108
CCc1ccccc1NC(=O)Cc1cn(C)c2ccccc12 | 113 | 111
COc1cccc(C(=O)NCC(=O)OCc2cc(=O)n3nc(C)sc3n2)c1 | 105 | 94
Brc1ccc(-n2nc(-c3ccccc3)c3cnc4cc5c(cc4c32)OCO5)cc1 | 106 | 107
Cc1ccc(C)c(N2CCN(S(=O)(=O)c3ccc4[nH]c5c(c4c3)CCCCC5)CC2)c1 | 105 | 108
CC(=O)c1cccc(NC(=O)Cn2c(=O)c(CNc3ccc(C)cc3)cc3cc4c(cc32)OCCO4)c1 | 102 | 112
Fc1ccc(Br)cc1C1C=C(c2ccc(Br)cc2)Nc2nnnn21 (stereo unspecified) | 101 | 118
O=c1c(S(=O)(=O)c2ccccc2)cn(Cc2ccc(F)cc2)c2cc(N3CCCCC3)c(F)cc12 | 111 | 110
Cc1ccccc1Cn1c2ccccc2c2cnn(CC(=O)NC3CCCCCC3)c(=O)c21 | 108 | 111
COc1ccccc1NC(=O)N1CCN(c2nnc(C)c3c(C)n(-c4ccc(Cl)cc4)nc23)CC1 | 109 | 112
COc1ccc(CNC(=O)CN(c2ccc(C(C)C)cc2)S(=O)(=O)c2c(C)nn(C)c2C)cc1 | 104 | 103
SMILES | Polio RdRp inh | Polio RdRp inh intensity
COc1cc(Nc2nc(SCc3ccccc3F)nc3ccccc23)cc(OC)c1 | 108 | 101
Cc1ccc2oc(C(=O)Nc3ccc(S(=O)(=O)N4CCCC(C)C4)cc3)cc(=O)c2c1 (stereo unspecified) | 110 | 114
COc1ccc(OC)c2sc(N3CCN(C(=O)C(C)(C)C)CC3)nc12 | 107 | 106
CCc1ccc(NC(=O)CSc2nc(C)c(C(=O)Nc3ccc(Cl)cc3)c(-c3ccc(OC)cc3)c2C#N)cc1 | 108 | 111
CC(=O)NCc1nc2cccnc2n1Cc1ccccc1 | 113 | 115
COc1ccc(NC(=O)CSc2nc3c([nH]c4ccccc43)c(=O)n2-c2ccccc2)c(OC)c1 | 110 | 113
COc1ccc(-c2nc(C)c(CCNS(=O)(=O)c3ccc(F)cc3)s2)cc1OC | 109 | 110
O=C(c1cc(-c2ccc(Cl)cc2)n[nH]1)N1CCN(S(=O)(=O)c2ccc(Br)s2)CC1 | 107 | 104
COc1cccc(-c2nc(S(=O)(=O)c3ccc(C)cc3)c(N3CCCCC3)o2)c1 | 105 | 107
Oc1c(C(c2ccccc2Cl)N2CCC(O)CC2)sc2nc(-c3ccco3)nn12 (stereo unspecified) | 106 | 107
COc1ccccc1CNC(=O)c1ccc(CSc2nc3ccncc3n2Cc2cccc(F)c2)cc1 | 113 | 113
Cc1ccc2ncc(C(=O)c3ccc(C)c(C)c3)c(S(=O)(=O)c3ccc(F)cc3)c2c1 | 111 | 110
Cc1c(C)n(Cc2ccccc2)c2ccc(C(=O)N3CCN(c4ccccc4F)CC3)cc12 | 108 | 110
O=C(CCC1N=C2c3ccccc3N=C(SCC(=O)Nc3ccc(F)cc3)N2C1=O)NCc1ccco1 (stereo unspecified) | 116 | 104
COCCn1c(SCC(=O)c2ccc(C)cc2)nc2cc(C(=O)NC3CCCC3)ccc2c1=O | 108 | 108
COc1cccc2cc(S(=O)(=O)c3ccc(F)c(C)c3)c(=O)oc12 | 105 | 106
Cc1cccc(C)c1NC(=O)c1cc2sccc2n1Cc1ccc(F)cc1 | 111 | 107
CC(=O)c1cccc(NC(=O)[C@H](Cc2ccccc2)N2Cc3ccccc3C2=O)c1 | 106 | 109
COc1ccc(-n2cnc3cc(C(=O)NCCC4=CCCCC4)ccc32)cc1 | 104 | 108
CC(C)c1ccc(S(=O)(=O)c2cnc(SCC(=O)Nc3ccc4c(c3)OCCO4)[nH]c2=O)cc1 | 110 | 111
COC(=O)c1ccccc1NC(=O)CSc1nc(C)c(Cl)c(C)c1C#N | 103 | 100
CC(=O)c1ccc(NC(=O)c2nc(-c3ccccc3)n(-c3ccc(Cl)cc3)n2)cc1 | 104 | 112
Cc1ccc(Cl)cc1NC(=O)c1cc(CN2CCCC2)on1 | 104 | 107
CCOc1ccc2nc(NC(=O)c3nc(SCc4ccccc4C)ncc3Cl)sc2c1 | 103 | 99
CSCCC(NS(=O)(=O)c1ccc2c(c1)oc(=O)n2C)C(=O)NCCc1ccc(C)cc1 (stereo unspecified) | 102 | 104
SMILES | Polio RdRp inh | Polio RdRp inh intensity
O=C(CCC1N=C2c3ccccc3N=C(SCc3ccc(Cl)cc3)N2C1=O)N1CCN(c2ccccc2)CC1 (stereo unspecified) | 113 | 113
CNC(=O)c1c(NC(=O)c2cc(=O)c3cc(C)c(C)cc3o2)sc2c1CCCC2 | 103 | 99
COc1cc(NC(=O)CN(c2cc(C)cc(C)c2)S(=O)(=O)c2c(C)[nH]c(=O)[nH]c2=O)cc(OC)c1 | 102 | 105
CCn1cc(C(=O)NCc2ccc(Cl)cc2)c(=O)c2cc(S(=O)(=O)N(C)C3CCCCC3)ccc21 | 106 | 107
CCN(CC)CCNC(=O)Cn1cnc2sc(C)c(S(=O)(=O)N3CCC(C)CC3)c2c1=O | 105 | 100
Nc1c(C(=O)Nc2ccccc2F)sc2nc3c(cc12)CCCCCC3 | 112 | 112
COc1ccc(C(=O)OCc2cc(=O)n3nc(C4CC4)sc3n2)cc1OC | 103 | 99
O=C(Nc1cccc(C(F)(F)F)c1)C1CCN(S(=O)(=O)c2cccc3nsnc23)CC1 | 109 | 108
COc1ccc(S(=O)(=O)c2cn(Cc3ccccc3)c3cc(F)c(F)cc3c2=O)cc1 | 106 | 110
COc1ccc(CCNC(=O)CSc2nc(-c3ccc(F)cc3)cc(C(F)(F)F)n2)cc1OC | 105 | 105
CCc1ccc(CN(Cc2cn[nH]c2-c2ccc(OC)cc2)C(=O)Nc2ccc(Br)cc2)cc1 | 105 | 100
COc1ccccc1NC(=O)CSc1oc(-c2cccs2)nc1S(=O)(=O)c1ccc(C)cc1 | 106 | 111
Cc1ccc(CNC(=O)Cn2c(=O)n(-c3ccc(Cl)cc3)c(=O)c3c(C)c(C)sc32)cc1 | 108 | 111
COc1ccc(N2C(N)=C(C#N)C(c3cc(CN4CCOCC4)cs3)C3=C2CCCC3=O)cc1 (stereo unspecified) | 109 | 115
COc1ccc(NC(=O)Cn2cc(C(=O)c3ccncc3)c(=O)c3cc(C)ccc32)cc1Cl | 108 | 109
CCOC(=O)c1cccc(NC(=O)CN2C(=O)c3ccccc3Sc3ncccc32)c1 | 112 | 108
CCCCN(C)CCNC(=O)CN1C(=O)CSc2ccc(S(=O)(=O)N3CCCCC3)cc21 | 117 | 116
CC(=O)c1c(C)n(S(=O)(=O)c2ccc(Cl)cc2)c2ccc(NS(=O)(=O)c3ccc(Cl)cc3)cc12 | 109 | 111
O=C(NCc1ccccc1)C(=O)NCC(c1ccc2c(c1)OCO2)N1CCOCC1 (stereo unspecified) | 99 | 99
CCC(=O)N1c2ccccc2CC1C(=O)NCCN1CCN(c2cccc(Cl)c2)CC1 (stereo unspecified) | 107 | 113
COc1ccc(-c2nc3c(C#N)c[nH]n3c2NC2CCCC2)c(OC)c1 | 112 | 110
CC1=C(C(=O)Nc2c(C)cc(C)cc2C)C2(CCN(C(C)C)CC2)OC1=O | 105 | 87
Cc1ccc(-c2nnc(Nc3ccccc3)c3ccccc23)cc1S(=O)(=O)N1CCN(C)CC1 | 105 | 109
CCc1ccc(NCc2cc3ccc(OC)cc3n(CC(=O)Nc3ccc(F)cc3F)c2=O)cc1 | 111 | 110
Cc1ccc(S(=O)(=O)N2CCc3cc(C(=O)Nc4ccc(Cl)cc4C)ccc32)cc1 | 106 | 103
SMILES | Polio RdRp inh | Polio RdRp inh intensity
CC1=C(C(=O)Nc2ccccc2C)C(c2cccs2)n2nc(SCc3cc(C)ccc3C)nc2N1 (stereo unspecified) | 114 | 104
CCc1cccc(C)c1NS(=O)(=O)c1c(C(=O)N2CCC(C)CC2)c(C)n(C)c1C | 106 | 107
CC(=O)N1CCC2(CC1)OC(=O)C(C)=C2C(=O)Nc1cccc(Cl)c1C | 100 | 105
COc1ccc(S(=O)(=O)c2nnn(-c3cccc(Cl)c3)c2N)cc1 | 105 | 108
COc1ccc(-c2cc(C(F)(F)F)n3nc(C(=O)OC(C)C)cc3n2)cc1 | 108 | 110
COC(=O)c1cccc(CN2C(=O)SC(Nc3ccc(Cl)cc3)C2=O)c1 (stereo unspecified) | 105 | 102
Cc1cc2n(n1)CCC(=O)N2Cc1ccc(C(=O)Nc2cc(Cl)ccc2C)cc1 | 111 | 115
CC1CCN(C(=O)CSc2n[nH]c(-c3ccc(F)cc3)n2)CC1 | 106 | 106
CC1(C(=O)NC2CCCCC2)Cc2ccccc2C(=O)N1Cc1ccccc1Cl (stereo unspecified) | 114 | 115
COc1ccc(-n2c(=O)c3c(c4cc(OC)ccc4n3C)n(CCC(C)C)c2=O)cc1 | 109 | 111
CCOc1cccc(CC(=O)Nc2ccc3nc(N4CCCCC4)cc(C)c3c2)c1OCC | 109 | 98
CC1(C)O[C@H]2[C@@H](O1)[C@@H](C(=O)Nc1ccccc1O)O[C@@H]1OC(C)(C)O[C@@H]12 | 107 | 105
O=C(CCNS(=O)(=O)c1ccc2c(c1)CCN2C(=O)C1CC1)N1CCN(c2ccc(F)cc2)CC1 | 100 | 97
CCc1ccc(-n2c(Cc3ccccc3)nnc2SCc2nc(-c3cccs3)no2)cc1 | 100 | 87
CCOc1ccc(NC(=O)Cn2ccn3nc(-c4ccc(OC)c(OC)c4)cc3c2=O)cc1 | 100 | 98
CCC(=O)N1CCc2cc(S(=O)(=O)CCC(=O)Nc3ccc(Cl)c(C(F)(F)F)c3)ccc21 | 111 | 115
O=C(NCCc1ccccc1Cl)c1ccc2c(=O)n(-c3ccccc3)c(=O)[nH]c2c1 | 104 | 105
CCc1ccc(NC(=O)CCS(=O)(=O)c2ccc3c(c2)n(C)c(=O)c(=O)n3C)cc1 | 101 | 105
CSc1ncc(Cl)c(C(=O)Nc2c(C(=O)Nc3cccc(Cl)c3)oc3ccccc23)n1 | 114 | 115

These rows are one share of the data; count on the stated rates, not on these rows.
